# hNpr1 antagonist – antagonists of human natriuretic peptide receptor Npr1; P16066; Potency, µM (top dose mostly 46.3 µM), without a hit: top-dose activity change, negative = inhibition, actives largely listed as inhibitors; 1.6% of 76,000 active; AID 1347048; HEK293 hNpr1 GloSensor cGMP, ANP-stimulated luminescence; active = well fitted inhibition curve with a large enough effect; inconclusive = small, poorly fitted or top-dose-only effect; inactive = no such curve, though single readings can be large or run the other way;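 also: nearly all actives have a fitted effect of over 60% in size; nearly all hits also lower the signal before the agonist is added; a reference antagonist and vehicle were the controls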
# Target sequence (P16066 whole entry, looked up): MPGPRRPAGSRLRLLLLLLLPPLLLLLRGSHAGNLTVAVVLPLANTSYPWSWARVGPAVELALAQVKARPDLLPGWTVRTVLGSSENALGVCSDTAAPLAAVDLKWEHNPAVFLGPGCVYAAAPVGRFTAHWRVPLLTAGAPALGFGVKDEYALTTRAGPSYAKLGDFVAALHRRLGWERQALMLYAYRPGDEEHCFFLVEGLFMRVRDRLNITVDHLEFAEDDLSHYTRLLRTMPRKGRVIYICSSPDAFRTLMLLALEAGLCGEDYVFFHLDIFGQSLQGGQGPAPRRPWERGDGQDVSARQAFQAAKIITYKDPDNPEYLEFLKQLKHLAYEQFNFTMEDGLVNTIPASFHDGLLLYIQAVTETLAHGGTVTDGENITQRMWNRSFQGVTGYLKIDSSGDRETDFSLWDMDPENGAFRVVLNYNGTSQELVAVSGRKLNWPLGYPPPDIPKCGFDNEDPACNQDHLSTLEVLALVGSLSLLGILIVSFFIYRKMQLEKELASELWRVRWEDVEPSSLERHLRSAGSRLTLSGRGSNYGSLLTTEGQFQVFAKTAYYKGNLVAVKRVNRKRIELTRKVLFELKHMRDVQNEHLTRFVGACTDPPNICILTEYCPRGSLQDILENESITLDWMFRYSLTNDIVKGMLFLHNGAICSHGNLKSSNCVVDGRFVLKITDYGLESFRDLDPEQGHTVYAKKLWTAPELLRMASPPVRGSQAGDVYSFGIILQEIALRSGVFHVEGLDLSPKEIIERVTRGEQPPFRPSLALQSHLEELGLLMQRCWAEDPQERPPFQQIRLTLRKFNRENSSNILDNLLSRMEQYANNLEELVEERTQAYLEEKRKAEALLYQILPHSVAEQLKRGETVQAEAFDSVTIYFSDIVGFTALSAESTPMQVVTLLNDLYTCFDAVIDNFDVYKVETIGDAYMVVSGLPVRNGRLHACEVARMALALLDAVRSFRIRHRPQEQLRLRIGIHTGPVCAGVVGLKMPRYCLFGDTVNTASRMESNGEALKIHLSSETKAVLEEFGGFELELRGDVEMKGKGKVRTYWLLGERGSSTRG
#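 HEK293 cells stably expressing human Npr1 and cGMP GloSensor pGS-40F, loaded 2 h with 2% GloSensor reagent, given compound 30 min at room temperature. Luminescence read before and 20 min after 0.1 nM hNppA.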
# Active calls of the source: *; ? = inconclusive; [ ] = dose if it differs, or a comment. % is scaled to controls: 0 for no effect and ±100 for the full control effect; potency is read from the fitted curve at half-maximal effect. Not all compounds are listed; rates above refer to the full screens.
SMILES,hNpr1 antagonist
O=C1CC(c2ccccc2)N(C(=O)CNC(=O)c2ccccn2)CCCCCCN1 (configuration not stated),4%
O=C1NC(C(=O)NCC2CC2)Cn2cccc21 (configuration not stated),0%
CN(Cc1ccccc1-n1cccn1)C(=O)C1CC(=O)N(C2CCCC2)C1 (configuration not stated),0%
CCOc1cc(=O)n2c(c1C(=O)Nc1ccc3c(c1)OCO3)CCCC2,-1%
COc1ccccc1CN1CCC(n2nccc2NC(=O)CCc2ccccc2)CC1,2%
CCC1Oc2ccc(NC(=O)c3cccc(F)c3)cc2CN(Cc2ccccc2F)C1=O (configuration not stated),-2%
CCN1CCC2(CCC1=O)CN(Cc1ccc(C)c3ccccc13)CCN2C (configuration not stated),5%
Cc1ccccc1C(=O)Nc1ccnn1C1CCN(C(=O)C2CC2(F)F)CC1 (configuration not stated),1%
CC[C@H]1CN(S(=O)(=O)c2c(C)noc2C)CC[C@H]1CC(=O)N1CCOCC1,2%[70.6 µM]
CCc1ccc(CNC(=O)CN2C(=O)NC3(CCC(C)CC3)C2=O)cc1 (configuration not stated),-6%
O=C(CCC1CCCN(Cc2ccc(-c3ccccc3)cc2)C1)N1CCOCC1 (configuration not stated),-15%
COc1ccc(N2CCN(c3ncncc3-c3nc(-c4ccccc4)no3)CC2)cc1,-10%
CNC(=O)[C@@H]1C[C@@H](O)CN1C1CCN(C(=O)C2CCCCC2)CC1,1%
Cc1nn(C)cc1CN1CC[C@](O)(c2ccccc2)[C@H](N(C)C)C1,-2%
Cn1ncc2c(N3CCN(S(N)(=O)=O)CC3)nc(C3CCCC3)nc21,-2%
O=C1c2cc(N3CCOCC3)nc(-c3cccc(CO)c3)c2CN1c1ccccc1,1%[70.6 µM]
CC(=O)N1CC2(Cc3ccccc31)CN(C(=O)c1ccccc1)C2,-13%[70.6 µM]
O=C(c1cc(F)cc(F)c1)N1CCC(Cc2nc(-c3ccc(F)cc3)no2)CC1,?
C[C@@H](NC(=O)[C@@]1(O)C[C@@H](O)[C@H](O)[C@@H](NC(=O)Nc2ccc(OC(F)(F)F)cc2)C1)C(N)=O,-1%
CN1CCC(OC2CCN(C(=O)C(C)(C)C)CC2)CC1,-1%
O=C1N(C2CCN(S(=O)(=O)c3cnc[nH]3)CC2)C(c2ccncc2)C12CCCCC2 (configuration not stated),1%
COc1ccc(CN2CCCC3(C2)CN(C)C(=O)O3)cc1C(=O)O (configuration not stated),5%
O=C(O)c1[nH]ncc1CN1CCC(N2CCC(C(=O)NCC3CCCO3)CC2)CC1 (configuration not stated),3%
C=CCn1cc2c3c(cccc31)[C@H](CC(C)C)N[C@H](C(=O)NCC1CC1)C2,-18%[70.6 µM]
O=C(O)COCC(=O)N[C@H]1CCN2C(=O)c3cc(-c4ccccc4)ccc3NC(=O)[C@H]12,3%[70.6 µM]
CNC(=O)[C@H]1C[C@H](Oc2cccnc2)CN1C(=O)NC(C)C,9%
CN(C)C(=O)C1CCN(C(=O)N2CC3CC(C2)[C@H]2CCCC(=O)N2C3)CC1 (some centres not stated),-3%
Cc1ccc(S(=O)(=O)N2CC(C(=O)NCc3ccncc3)C3(CCOCC3)C2)c(C)c1 (configuration not stated),0%
O=C(COCC1CCCO1)N1CCc2onc(-c3ccc4c(c3)OCO4)c2C1 (configuration not stated),2%
Cc1ccc(CN2C[C@@H]3C(=O)N(CCCN4CCCC4=O)C(=O)[C@@H]3C2)cc1,-2%
COC[C@@H]1CN(C(=O)CCc2ccc(OC)cc2)C[C@H]1c1ccncc1,0%
O=C(NC1CCCN(c2cc(-c3ccccc3)[nH]n2)C1)c1ccc2cc[nH]c2c1 (configuration not stated),?
O=C1CCN(S(=O)(=O)c2ccccc2)CCCN(Cc2cccc(F)c2)CCN1,-2%
O=C(O)CC1CCCCN(Cc2ccccc2)C1=O (configuration not stated),-1%
Cc1nc2c(C)cccc2cc1C(=O)N1CCC2(CCNCC2)CC1,4%
Cc1ccc(C)c(C(=O)N2CCC(c3n[nH]c(=O)n3-c3ccccc3)CC2)c1,0%
CNC(=O)N1CCC(C2CCN(C(=O)NC(C)C)C2)CC1 (configuration not stated),1%
CN1C(=O)[C@@H]2C[C@@H](CN2C(=O)COc2ccccc2)Oc2ccccc21,4%[70.6 µM]
CCCCN1C(=O)[C@@H]2C[C@@H](O)CN2C2(CN(Cc3cccc(OC(F)(F)F)c3)C2)C1=O,-3%
CC1(CNc2ccccc2)COc2ccc(C(=O)N3CC(O)C3)cc2N1 (configuration not stated),-18%[70.6 µM]
Cc1ccc2c(n1)N(C)[C@H](CO)CCN(Cc1ccc(C(F)(F)F)cc1)C2,-11%[70.6 µM]
O=C(N[C@@H](Cn1cc(Br)c(=O)[nH]c1=O)C(=O)O)C1CCC1,0%[70.6 µM]
CN(C)C[C@@H]1CN(Cc2ccncc2)C[C@H]1N,7%
CC(C)[C@@H](N)C(=O)N[C@@H]1C=C(C(=O)N[C@@H](CCS(C)(=O)=O)C(N)=O)C[C@@H](O)[C@@H]1O,-2%[70.6 µM]
COc1ccc(-c2nnc3n2CCN([S+](C)(=O)[O-])C3)cc1,6%[70.6 µM]
CSc1cccc(NC(=O)Cn2nc3c(cc2=O)CCCCC3)c1,4%
CC(C)(C)C1CCC2(CC1)NC(=O)N(CC(=O)NC1CCc3ccccc31)C2=O (configuration not stated),-11%
O=C(NC1CC1)[C@@H]1C[C@H](Oc2ccccc2)CN1C(=O)CC1CCCC1,-2%
CSCc1nc(-c2ccncc2)nn1Cc1ccc2c(c1)OCO2,11µM*
COc1ccc(CN[C@@H]2CCC[C@@H](C(=O)N3CCN(C)CC3)CC(=O)N(C)C2)cc1,8%[70.6 µM]
COC(=O)[C@H](NC(=O)[C@@H]1[C@@H](NC(=O)Nc2ccc(F)cc2F)CCN1C(=O)c1cccn1C)C(C)C,2%
CC(=O)NC1(C)CN(Cc2ccc(-c3cccc(C(F)(F)F)c3)nc2)C1,-3%[70.6 µM]
Cc1nn(CC(=O)N2CCC3(CCCN(C)CC3)CC2)c(=O)c2ccccc12,4%
CNC(=O)[C@@H]1C[C@H](Oc2ccccc2)CN1C(=O)C1CCC1,3%
CC(C)c1noc(-c2cn(C3CCCN(C(=O)c4ccc(F)c(F)c4)C3)nn2)n1 (configuration not stated),-12%
O=C(c1ccncc1)N1CCCC1c1nc(CCOCC2CCCC2)no1 (configuration not stated),6%
O=C(NCc1cnccn1)c1ccc(-c2ncc3cnc(C4=CCOCC4)cn23)cc1,-1%[70.6 µM]
COc1ccc(C2Cn3nnc(-c4noc(-c5ccc(Cl)cc5OC)n4)c3CO2)cc1 (configuration not stated),13%
CS(=O)(=O)Nc1ccc(C2(C(=O)NCc3ccc(F)cc3)CCCCC2)cc1,3%
Cc1nc(-c2ccc(Cl)cc2)n(CC(=O)N2CCN(c3ccc(F)cc3)CC2)c(=O)c1CCO,1%
# Carrying on.
SMILES,hNpr1 antagonist
O=C(c1ccccc1)N1C[C@@H](CO)[C@H](c2nc(-c3ccncc3)no2)C1,0%
CCN1C(=O)C2(CCN(S(=O)(=O)c3c(C)nn(C)c3C)CC2)c2ccccc21,3%
O=C1CCN(S(=O)(=O)c2ccccc2)CCCN(C(=O)CCc2c[nH]c3ccccc23)CCN1,0%
Cc1ccc(-c2nnc(C3CN(C(=O)COc4cccc(C)c4)CC34CCOCC4)o2)cc1 (configuration not stated),0%
O=C(NCc1ccc(F)cc1)C1CN(Cc2ccccc2)C(=O)N1 (configuration not stated),-3%[70.6 µM]
CC1(C)[C@H](Cc2cc(CCO)on2)C[C@@H]1N(S(C)(=O)=O)S(C)(=O)=O,0%[70.6 µM]
O=C(Nc1ccc(F)cc1F)N1CCC2(CC1)SCC(=O)N2c1ccc(Cl)cc1,-23%
COCCN1C(=O)CS(=O)(=O)C12CCN(C(=O)c1cc(F)ccc1Cl)CC2,11%
CN(C)CCNC(=O)c1nc2nc(-c3ccccc3)c(-c3cccnc3)cc2n1C,0%[70.6 µM]
COC(=O)COc1cccn2c(=O)c(-c3cc(C)n(-c4ccc(C)cc4C)n3)c(C)nc12,-2%
Cc1cn2nc(C(=O)N3CCC(NC(=O)c4ccccc4Cl)CC3)cc2c(=O)[nH]1,-6%
Cc1nc(N2CCC(C(=O)NCCC3=CCCCC3)CC2)cc(C(F)(F)F)n1,?
Cc1ccc(C)c(NC(=O)[C@H]2CCC[C@H]2NC(=O)c2cnc(C)cn2)c1,0%
COCCNc1ccc2nnc(-c3ccccn3)n2n1,3%[70.6 µM]
COCCCNC(=O)N1CCC2(CC1)CC(N(Cc1ccc(F)cc1)C1CC1)CCO2 (configuration not stated),13%
Cc1cc(C)cc(C(=O)N2CCCN(S(C)(=O)=O)c3ccccc32)c1,-4%
Cc1cc2c(-c3ccccc3C)nc(-c3c(C)noc3C)cc2[nH]1,-15%[70.6 µM]
COc1cc(OC)c(NC(=O)Cn2c(N(C)Cc3ccccc3)nc(C)cc2=O)cc1Cl,10µM*
COc1cccc(NC(=O)C2(C)CCc3cnc(N4CCOCC4)nc32)c1 (configuration not stated),2%[70.6 µM]
CNC(=O)[C@@H]1C[C@H](Oc2cccnc2)CN1C(=O)c1ccco1,-10%
Cc1ccccc1C(=O)N1CCC2(CC1)CCN(Cc1cccs1)c1ccccc1O2,11%
Cc1nc(-c2c3n(c(=O)n(CC(=O)Nc4ccc5c(c4)OCO5)c2=O)CCCCC3)no1,4%
COC(=O)CCNC(=O)C1c2ccccc2C(=O)N(CC(C)C)C12CCCCC2 (configuration not stated),3%
O=c1c2nc(N3CCC(c4ccccc4)CC3)ccc2ncn1Cc1ccccn1,5%[70.6 µM]
CN1C(=O)C(c2ccccc2)CC12CCN(C(=O)C1(C(N)=O)CC1)CC2 (configuration not stated),-2%
CCCNC(=O)O[C@@H]1CC[C@]2(C)C(CC[C@@H](O)[C@H]2CC(=O)NCc2ccc(F)cc2)[C@]1(C)CO (some centres not stated),1%
CC(C)N1C[C@H](O)C[C@H]1c1nnc2n1CCN(C(=O)C1(c3ccccc3)CC1)CC2,-15%
COc1ccc(C(=O)N2CCCN(C)c3ccccc32)c(OC)c1,-22%
CCn1nc(CC(C)C)cc1C(=O)N1CCCC1c1nonc1C (configuration not stated),0%
COc1ccc(-c2ccc3nc(-c4ccccc4Cl)oc3c2)c(OC)c1OC,1%
Cc1ncoc1C(=O)NC1CC(C)(C)Cc2nc(C(C)(C)C)ncc21 (configuration not stated),1%
COC1CN(c2cccc(F)c2)C12CCN(C(=O)c1ccnn1C)CC2 (configuration not stated),2%
COc1ccc(CN2C=C(C(=O)OCc3nc(C4CC4)no3)C(C)=NS2(=O)=O)cc1,-27%
CS(=O)(=O)N1CCCC1c1noc(CCC(=O)O)n1 (configuration not stated),0%
O=C(C1CCCCC1)N1CCC(OC2CCN(Cc3ccccc3)CC2)CC1,4%
CCCc1ccc(S(=O)(=O)NC2CCN(c3ccc(=O)n(CC4CC4)n3)CC2)cc1,10µM*
Cc1noc(C)c1CC(=O)N1CCC[C@H](n2c(=O)n(C)c3cccnc32)C1,-26%
CCC(C)NC(=O)C(NC(=O)c1cccc(C)c1)C1CCN(C(=O)c2ccccc2F)CC1 (configuration not stated),6%
COc1ccc2[nH]c3c(c2c1)CCNC31CCN(C(=O)c2ccccc2)CC1,8%
CCOC(=O)C1(Cc2ccccc2Cl)CCNCC1,-2%
Cc1ncccc1C(=O)N1CCCCCCN(C)C(=O)[C@@H]2CCC[C@@H]21,-2%
CCc1nncn1C1CCN(S(=O)(=O)c2cccc(F)c2)CC1,-6%
COc1cccc(CN2C[C@@H](F)[C@@H](OCc3nc4ccccc4o3)C2)n1,4%[70.6 µM]
COc1ccc(CCC(=O)N2CC[C@@H]3COCCN(Cc4ccncc4)[C@@H]3C2)cc1,-12%
COc1cc(F)ccc1-c1cc(C(=O)NCc2cccnc2)c2c(c1)N(C)CCO2,-11%[70.6 µM]
CSc1nccc(N2CCC3(CC2)CC(=O)N(CC(C)C)C3)n1,7.1µM*

# 16 entries out of the list, arranged by length of the SMILES, low to high:
SMILES,hNpr1 antagonist
CCOC(=O)C1(Cc2ccccc2Cl)CCNCC1,-2%
CS(=O)(=O)N1CCCC1c1noc(CCC(=O)O)n1 (configuration not stated),0%
CCn1nc(CC(C)C)cc1C(=O)N1CCCC1c1nonc1C (configuration not stated),0%
CCc1nncn1C1CCN(S(=O)(=O)c2cccc(F)c2)CC1,-6%
CSc1nccc(N2CCC3(CC2)CC(=O)N(CC(C)C)C3)n1,7.1µM*
COC1CN(c2cccc(F)c2)C12CCN(C(=O)c1ccnn1C)CC2 (configuration not stated),2%
Cc1ncoc1C(=O)NC1CC(C)(C)Cc2nc(C(C)(C)C)ncc21 (configuration not stated),1%
COc1ccc(-c2ccc3nc(-c4ccccc4Cl)oc3c2)c(OC)c1OC,1%
COc1ccc2[nH]c3c(c2c1)CCNC31CCN(C(=O)c2ccccc2)CC1,8%
Cc1ncccc1C(=O)N1CCCCCCN(C)C(=O)[C@@H]2CCC[C@@H]21,-2%
COc1cccc(CN2C[C@@H](F)[C@@H](OCc3nc4ccccc4o3)C2)n1,4%[70.6 µM]
Cc1noc(C)c1CC(=O)N1CCC[C@H](n2c(=O)n(C)c3cccnc32)C1,-26%
CCCc1ccc(S(=O)(=O)NC2CCN(c3ccc(=O)n(CC4CC4)n3)CC2)cc1,10µM*
COc1ccc(CCC(=O)N2CC[C@@H]3COCCN(Cc4ccncc4)[C@@H]3C2)cc1,-12%
CCC(C)NC(=O)C(NC(=O)c1cccc(C)c1)C1CCN(C(=O)c2ccccc2F)CC1 (configuration not stated),6%
CC(C)N1C[C@H](O)C[C@H]1c1nnc2n1CCN(C(=O)C1(c3ccccc3)CC1)CC2,-15%

# Screening results as filed in PubChem.
